# Env fusion inh – inhibitors of HIV-1 Env-driven cell-cell fusion, primary screen, HeLa-JRFL effector, CEM21 target cells, luciferase. inhibition, % at 12.3 µM. 1.1% of 360,000 active. AID 651610, 2012;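 active means mean replicate inhibition score of at least 50 and every replicate individually at or above 50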;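 further: 0% = plate neutral controls and 100% = maraviroc near 300 nM; one replicate is shown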
# CSC inhib – cancer stem cell viability inhibitors, primary screen, luminescence. inhibition, % at 7.5 µM. AID 2717, 2010. 1.1% of 300,000 active. cancer stem cell-like cells viability;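 active means mean at 75% or more and at least half the replicates too; tested in HMLE shEcad cells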;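 further: 0% = median of negative and 100% = median of positive control wells; the first replicate is given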
# Rce1 inh – yeast Rce1p protease inhibitors, primary screen, biochemical, fluorescence, cell-free homogeneous. CAAX prenyl protease 2 (Saccharomyces cerevisiae (strain ATCC 204508 / S288c)), Q03530. yeast membranes, quenched prenylated peptide cleavage fluorescence. calls only. 0.27% of 290,000 active. AID 2563, 2010;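 active means fall in fluorescence gain of 50% or more versus controls, with final raw signal at or below 3038400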;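 further: plate controls were neutral control wells for no effect and wells lacking membranes for full effect; tested at 10 µM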
# Target sequence (Q03530 whole entry, looked up): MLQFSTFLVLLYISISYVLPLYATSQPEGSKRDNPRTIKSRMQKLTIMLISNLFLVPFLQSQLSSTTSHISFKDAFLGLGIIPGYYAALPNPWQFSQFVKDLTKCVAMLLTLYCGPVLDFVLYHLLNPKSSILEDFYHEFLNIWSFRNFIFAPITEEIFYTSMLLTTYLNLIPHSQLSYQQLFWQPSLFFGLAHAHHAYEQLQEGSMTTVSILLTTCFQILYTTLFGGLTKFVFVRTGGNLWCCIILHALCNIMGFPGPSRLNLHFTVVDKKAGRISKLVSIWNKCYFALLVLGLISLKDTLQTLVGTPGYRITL
# PABP FP inh – PABP poly(A) RNA binding inhibitors, primary screen, biochemical, fluorescence polarization, uHTS; 1% of 290,000 active; Polyadenylate-binding protein 1 (Homo sapiens), P11940; inhibition, % at 35 µM;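 active means 50% or more with normal probe brightness, or confirmed in later tests; about a fifth of its hits are not listed in these tables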;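 further: calls also rest on retests at 20 µM and on dose response follow-up; controls were probe without protein and protein plus probe with vehicle; some compounds called inactive have numbers as strong as hits; many hits fall short of the cut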
# Target sequence (P11940 whole entry, looked up): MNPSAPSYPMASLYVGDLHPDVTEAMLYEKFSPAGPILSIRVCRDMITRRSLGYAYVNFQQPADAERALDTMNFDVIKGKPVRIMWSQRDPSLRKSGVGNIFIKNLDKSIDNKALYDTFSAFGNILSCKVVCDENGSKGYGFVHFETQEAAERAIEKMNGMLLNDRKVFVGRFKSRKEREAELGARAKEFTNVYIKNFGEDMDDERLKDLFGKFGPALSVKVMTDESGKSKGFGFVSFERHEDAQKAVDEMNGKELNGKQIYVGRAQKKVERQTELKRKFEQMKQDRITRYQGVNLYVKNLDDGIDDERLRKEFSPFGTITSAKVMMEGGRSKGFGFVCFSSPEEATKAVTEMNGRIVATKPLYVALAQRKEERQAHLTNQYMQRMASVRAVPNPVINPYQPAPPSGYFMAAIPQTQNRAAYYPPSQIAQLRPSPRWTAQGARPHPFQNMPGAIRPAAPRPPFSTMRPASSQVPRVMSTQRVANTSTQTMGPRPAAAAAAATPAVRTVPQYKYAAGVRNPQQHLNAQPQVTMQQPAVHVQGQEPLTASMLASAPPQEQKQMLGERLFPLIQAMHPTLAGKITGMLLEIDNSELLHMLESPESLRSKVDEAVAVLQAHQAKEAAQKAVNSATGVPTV
# eIF4H FP inh – human eIF4H binding inhibitors, primary screen, translation initiation inhibitor project, biochemical, uHTS, fluorescence polarization; Eukaryotic translation initiation factor 4H (Homo sapiens), Q15056; eIF4H fluorescence polarization binding assay; inhibition, % at 35 µM; 0.94% of 290,000 active;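 active means 50% or more with normal probe brightness, or confirmed in later tests; about a fifth of its hits are not listed in these tables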;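 further: calls also rest on retests at 20 µM and on dose response follow-up; 0% = protein and probe with vehicle and 100% = probe without protein; strong numbers were not always called active; many hits fall short of the cut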
# MT1-MMP act inh – blockers of MT1-MMP proenzyme processing, primary screen, HT1080 RFP-PRO-GFP cells, GFP/RFP fluorescence | Matrix metalloproteinase-14 (Homo sapiens), P50281 | GFP/RFP ratio fluorescence, overnight; percent of plate control window, DMSO zero | GFP/RFP ratio change, % at 20 µM | 0.061% of 360,000 active | AID 651647, 2012;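 active means GFP/RFP ratio change of at least 30% with cell ATP level not reduced by more than half and red fluorescence within 50% of control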; further: strong numbers were not always called active
#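 Assay system: HT1080 cells carrying an RFP-PRO-GFP reporter | Dosing: Single dose of 20 µM compound, 1% DMSO final | Incubation: Cells overnight before dosing, compound overnight, 37 °C, 5% CO2 | Evaluation: GFP/RFP fluorescence ratio | Control set: DMSO and RFP-L50D-GFP cell wells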
# Yeast UUG start – modulators of yeast start codon fidelity, primary screen, whole organism, S. cerevisiae, single point, plate reader; S. cerevisiae UUG-firefly luciferase reporter, luminescence/redox ratio; activity score, % at 18.7 µM; 0.13% of 350,000 active;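 active means replicate mean at a twofold rise or more, about +100% in these data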;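 further: firefly luciferase made from a UUG start codon reports start codon fidelity; reporter light over untreated wells divided by growth signal over untreated wells; some hits fall short of that in this replicate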
# eIF4H FP inh retest – also measured in eIF4H FP inh; calls as there; inhibition, %; compound at 20 µM; confirmation average;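 mean of two retest wells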
# PABP FP inh retest – recorded beside PABP FP inh, whose call it bears; inhibition, %; compound at 20 µM; confirmation repeats;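 mean of two retest wells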
# MT1-MMP act inh RFP – further read-out of MT1-MMP act inh, marked with its call; RFP signal change, %; measured here: RFP expression control read;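 0 = vehicle wells; hits needed this value within 50% of zero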
# * marks the source's active call; other numbers are inactive results; i = inactive; x = no result given. A portion of the library; the hit share may differ from the screen's.
SMILES,Env fusion inh,CSC inhib,Rce1 inh,PABP FP inh,eIF4H FP inh,MT1-MMP act inh,MT1-MMP act inh RFP,Yeast UUG start,others
O=C(NCCC(=O)N1CCN(c2ccccn2)CC1)c1ccc(Cl)cc1,-2,-24,x,x,x,0,2,-15,
Cc1nnc(NC(=O)Oc2ccccc2)s1,x,-20,i,-15,-1,0,5,-21,
CCOC(=O)C1CCCN(S(=O)(=O)c2cccs2)C1 (centres undefined),x,-3,i,6,4,-1,1,x,
COc1cccc(-c2nc(N3CCCCC3)c3ccccc3n2)c1O,40,51,x,x,x,-3,-10,0,
Cc1cccc(N(C(=O)CNC(=O)c2cccs2)C(C(=O)NC2CCCC2)c2cccnc2)c1 (centres undefined),x,-15,i,-10,-8,1,1,-9,
CNC(=O)N(O)C1N(NC(=O)Nc2ccccc2)C(=S)SC1(C)C (centres undefined),10,-18,i,x,x,3,-1,-3,
Cc1ccc(NC(=O)CN2C(=O)S/C(=C/c3ccc(O)c([N+](=O)[O-])c3)C2=O)cc1C,14,x,x,-5,68,11,1,x,eIF4H FP inh retest=11;PABP FP inh retest=20
CC(=O)Nc1cc(-c2ccc(C(=O)N3CCOCC3)cc2)cn2c(-c3cccc(C(F)(F)F)c3)cnc12,28,x,x,x,x,-6,-3,13,
COc1ccc(CCCNC(=O)C2CCC(=O)N(CCc3cccc(F)c3)C2)cc1 (centres undefined),-15,0,i,-16,6,2,-2,2,
COc1cccc(NC(=O)C2CC(=O)OC23CCOC(C)(C)C3)c1 (centres undefined),x,-9,i,4,7,0,0,-34,
CCOC(=O)C1CCN(C(=O)c2c(C)oc3c2C(=O)c2ccccc2C3=O)CC1,0,60,i,20,2,3,-5,-3,
CC1CCN(CCC(=O)NN)CC1,11,6,i,17,-4,1,5,x,
N#CCC(=O)Nc1ccc(C(=O)N2CCN(S(=O)(=O)c3ccc4ccccc4c3)CC2)cc1,-10,5,i,0,3,0,0,-12,
CCN(CCCNC(=O)CN(C)S(=O)(=O)c1cccc2nsnc12)c1ccccc1,-65,-13,i,-5,-7,-1,-1,-8,
Cc1cccc(C(=O)Nc2nnc(Cc3c[nH]c4ccccc34)s2)c1,-41,35,i,2,4,0,-10,-11,
Cc1ccccc1CN1CCC(CNC(=O)C2CCCN(c3ncnc4c3nc3n4CCCCC3)C2)CC1 (centres undefined),8,6,i,6,-9,2,3,0,
CCCCOC(=O)C1=C(C)N(C)C(=O)NC1c1cc2c(cc1Br)OCO2 (centres undefined),-15,x,x,x,x,-3,-2,-12,
Cc1ccc2oc(C(=O)N3CCN(C)C[C@@H]3C(C)C)c(C)c2c1,-19,6,i,-2,0,2,-1,-7,
COc1cc(/C=C(/C#N)c2ccc(F)cc2)ccc1Oc1ccc([N+](=O)[O-])cn1,x,26,i,8,-4,-11,-30,x,
COC(=O)c1cc(O)cc(OC)c1Oc1cc(C)cc(O)c1C(=O)O,x,57,x,74*,90*,-2,4,-9,
Cc1ccc(C(=O)N2CCCC2)cc1Br,4,1,i,-7,-5,-2,0,5,
Cc1ccc2nc(CSc3nnc4ccccn34)cc(=O)n2c1,3,-5,i,3,7,-2,-1,x,
Oc1ccc(C[C@H]2CN([C@@H](Cc3ccccc3)CN3CCC[C@@H]3CN3C(=S)NC[C@@H]3Cc3ccccc3)C(=S)N2CC2CCCCC2)cc1,7,x,x,x,x,2,1,-10,
O=[N+]([O-])c1cc(S(=O)(=O)N2CCCC2)ccc1NCCCN1CCOCC1,5,1,i,21,3,4,0,-11,
CCOC(=O)c1ccc(NC(=O)CN(c2ccc(C)cc2)S(=O)(=O)c2c(C)nn(C)c2C)cc1,9,-5,i,-17,-9,-5,-6,x,

# The last 3 compounds of the part before come first, to join the parts.
SMILES,Env fusion inh,CSC inhib,Rce1 inh,PABP FP inh,eIF4H FP inh,MT1-MMP act inh,MT1-MMP act inh RFP,Yeast UUG start,others
Oc1ccc(C[C@H]2CN([C@@H](Cc3ccccc3)CN3CCC[C@@H]3CN3C(=S)NC[C@@H]3Cc3ccccc3)C(=S)N2CC2CCCCC2)cc1,7,x,x,x,x,2,1,-10,
O=[N+]([O-])c1cc(S(=O)(=O)N2CCCC2)ccc1NCCCN1CCOCC1,5,1,i,21,3,4,0,-11,
CCOC(=O)c1ccc(NC(=O)CN(c2ccc(C)cc2)S(=O)(=O)c2c(C)nn(C)c2C)cc1,9,-5,i,-17,-9,-5,-6,x,
O=C(Nc1ccc(S(=O)(=O)Nc2ccc(F)cc2)cc1)c1ccc(CN2CCOCC2)cc1,12,1,i,8,-3,-6,-28,x,
COc1ccc(C(=O)NCc2ccc3c(c2)cc(C)n3C)cc1,x,3,i,24,49,31*,41*,-10,
NC(=O)NOCc1cccc(Cl)c1,4,3,i,3,-8,1,3,x,
COc1ccc(CC(=O)Oc2ccc(F)c(F)c2)cc1S(=O)(=O)N1CCOCC1,-4,0,i,x,x,0,4,-7,
C=C(C)COc1ccc(-c2n[nH]c(C)c2-c2ccc(Br)cc2)c(O)c1,x,101*,i,-4,-8,-15,-16,-8,
COc1ccc2cc(C3=CC(=O)CCC3)ccc2c1,-145,x,x,x,x,3,-4,-4,
O=C(O)CNC(=O)/C(=C\c1cccc([N+](=O)[O-])c1)NC(=O)c1ccco1,-23,-16,i,8,7,4,3,x,
Cc1cc2cc(CNC(=O)c3ccc(C)c([N+](=O)[O-])c3)ccc2[nH]1,x,-3,i,30,10,15,10,-12,
COc1ccc(/C=C/c2nc(-c3ccccc3O)n[nH]2)cc1OC,-201,31,i,-11,6,6,-4,0,
Cc1ccc(S(=O)(=O)N(C)c2ccc(C(=O)NCCc3ccccc3)cc2)cc1,-7,8,i,-12,-12,-10,-6,5,
COc1cccc(CNC(=O)CCC2CCCN(C(=O)c3cccnc3SC)C2)c1 (centres undefined),6,-3,i,x,x,1,3,8,
CC(C)CCn1nc(C(=O)Nc2nc3c(s2)CCCC3)c2ccccc2c1=O,-10,25,i,-5,-3,0,-23,x,
CCOc1ccc(NC(=S)NC(=O)c2c(Cl)cnn2CC)c([N+](=O)[O-])c1,28,x,i,18,-3,0,-4,x,
COc1ccc2nc(/N=C(\N)NC(=O)Nc3ccccc3)nc(C)c2c1,x,-7,i,-6,-2,-3,-5,x,
CCNC(=S)N/N=C/c1cccc(/C=N/NC(=S)NCC)c1,3,-5,i,-4,-5,8,-2,x,
Clc1ccc(CON/C=N/c2ncnc3sccc23)cc1,x,13,i,3,-2,-7,-21,x,
O=C(CCNS(=O)(=O)c1ccccc1)OCC(=O)c1ccc(Cl)cc1,15,-13,i,x,x,3,1,x,
CN(C)c1ccc(C(CNS(=O)(=O)c2ccc([N+](=O)[O-])cc2)N2CCCC2)cc1 (centres undefined),0,-7,i,x,x,-2,5,-7,
O=C(OCc1csc(-c2ccccc2)n1)C1=NN(c2ccccc2)C(=O)CC1,x,-5,x,x,x,-1,2,-3,
COc1ccc(CC(N)c2csc(Nc3nc(C)cnc3C)n2)cc1 (centres undefined),-10,x,x,x,x,-1,2,0,
COCCCNC(=O)CC(NS(=O)(=O)c1ccc(Cl)cc1)c1ccco1 (centres undefined),x,x,i,-3,3,-6,5,-9,
Cc1ccc(Cn2c(SC(C)C(N)=O)nc3ccccc3c2=O)cc1 (centres undefined),17,7,i,0,-4,0,5,x,
COc1ccccc1C1c2[nH]c3ccccc3c2CCN1Cc1ccc(NC(C)=O)s1 (centres undefined),17,0,i,1,1,-8,-5,14,
Oc1ccccc1/C=N/NC1=NCCCCC1,-39,x,x,2,-1,0,3,-7,
Cc1ccc(CC(=O)CCc2ccccc2)cc1,-10,4,i,x,x,8,5,-9,

# The listing continues.
SMILES,Env fusion inh,CSC inhib,Rce1 inh,PABP FP inh,eIF4H FP inh,MT1-MMP act inh,MT1-MMP act inh RFP,Yeast UUG start,others
CCOC(=O)CC(NC(=O)C1c2ccccc2Oc2ccccc21)c1ccc(C)cc1 (centres undefined),-3,-1,i,-7,2,0,-1,-27,
CC(=O)Nc1sc(C)c(C)c1C(=O)OCC(=O)N(Cc1ccccc1)C(C)C,x,-24,x,x,x,3,1,-12,
Cc1nn(C)c(C)c1N1C(=O)c2cccc3c(N)ccc(c23)C1=O,-12,-5,x,118*,129,-318,4,-21,eIF4H FP inh retest=14;PABP FP inh retest=81*
COc1ccc(CN2CCNC(=O)C2CC(=O)N2CCCN(C(C)=O)CC2)cc1OC (centres undefined),-3,-4,i,-9,-4,-1,3,-13,
C/C(=N/NC(=O)c1ccccc1)C1=C(O)CC(C)(C)CC1=O,-29,-4,i,-4,-3,6,5,x,
Cc1ccc(C)c(NS(=O)(=O)c2ccc(OCC(=O)NCc3cccnc3)cc2)c1,35,17,i,-15,-3,-2,-3,x,
CC(C)c1ccc(N(C(=O)c2csnn2)C(C(=O)NC2CCCC2)c2cccnc2)cc1 (centres undefined),14,-5,i,7,3,-2,2,0,
Cc1nc2ccc(C(=O)Nc3cccc(OCC(=O)N(C)C)c3)cn2c1N(C)CC1CCCCC1,23,x,x,x,x,-2,-10,-1,
Cc1ccc(-c2nnc3c4ccccc4c(C)nn23)cc1NC(=O)CN1CCOCC1,x,x,i,8,-10,x,x,x,
CCc1cc2c(NCCN3CCCCC3)ncnc2s1,-18,14,x,8,4,-1,3,-6,
CCSc1nnc(CSc2ncccn2)n1C,-7,-14,i,-6,7,1,3,x,
Cc1cc(C)c(S(=O)(=O)N2CCCC2=O)c(C)c1N(C)S(C)(=O)=O,9,x,i,-8,-15,-2,-4,3,
Nc1nonc1-n1nncc1-c1ccccc1,x,-5,i,-6,-3,-6,0,-2,
CCCCN(C)S(=O)(=O)c1ccc(C(=O)Nc2nnc(C3=COCCO3)o2)cc1,-13,10,i,-9,22,-2,2,x,
O=C(O)c1ccc(CSCc2ccccc2Cl)o1,-4,10,i,-3,2,1,0,-11,
Clc1ccc(Cl)c(-c2nn3c(Cn4cnc5ccccc54)nnc3s2)c1,x,-7,i,x,x,7,-2,-20,
COc1ccc(Nc2nc(C(=O)N3CCc4cc(OC)c(OC)cc4C3)cs2)cc1,23,50,i,-5,-7,-5,-4,x,
C=CCN1C(=O)C2C3CC(=O)C(c4ccccc43)C2C1=O (centres undefined),8,-6,i,-11,-2,2,3,x,
COc1cccc(-n2c(SCC(N)=O)nnc2-c2ccncc2)c1,x,-14,i,6,2,2,5,-15,
COc1cccc(C(=O)NC(c2ccccc2)C2CCCC2)c1 (centres undefined),-28,-5,i,-5,0,1,-1,x,
CSc1ccccc1C(=O)Nc1c(C)cccc1C,-2,-2,i,-6,-8,16,-3,-2,
Oc1ccccc1C1NN=C(c2ccccc2)S1 (centres undefined),-85,-6,i,1,14,-1,-3,-27,
CC(C)C[C@H](NC(=O)c1[nH]cnc1C(=O)Nc1ccccc1F)C(=O)OC(C)(C)C,5,x,x,x,x,-17,-22,5,
O=C(OCC(=O)N1CCN(c2ccccc2)CC1)c1cnc(Cl)c(Cl)c1,7,-6,i,11,7,x,x,x,
CC1CCc2cc(F)ccc2N1C(=O)c1cccs1 (centres undefined),-3,-23,i,-10,-7,-2,-1,0,
Cc1ccc(S(=O)(=O)NN=Cc2ccccc2Cl)cc1,11,x,x,x,x,2,3,-6,
Cc1cc(C)nc(CCNC(=O)c2cc(COc3ccc(F)cc3Cl)on2)n1,11,-4,x,1,0,-8,2,-5,

# From PubChem BioAssay
